Source: PubChem (several laboratories)
RecA intein inh: blocks M. tuberculosis RecA intein splicing | inhibition, %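 (about 9 µM by stock and volumes)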 | 290,000 tested, 0.75% active | cell-free RecA intein splicing, fluorescence; in the data active means inhibition above about 30%; inconclusive means no clear call, values can overlap the other calls;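 further: 0% = vehicle wells and 100% = reference inhibitor control wells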
Target sequence (P9WHJ3 whole entry, looked up): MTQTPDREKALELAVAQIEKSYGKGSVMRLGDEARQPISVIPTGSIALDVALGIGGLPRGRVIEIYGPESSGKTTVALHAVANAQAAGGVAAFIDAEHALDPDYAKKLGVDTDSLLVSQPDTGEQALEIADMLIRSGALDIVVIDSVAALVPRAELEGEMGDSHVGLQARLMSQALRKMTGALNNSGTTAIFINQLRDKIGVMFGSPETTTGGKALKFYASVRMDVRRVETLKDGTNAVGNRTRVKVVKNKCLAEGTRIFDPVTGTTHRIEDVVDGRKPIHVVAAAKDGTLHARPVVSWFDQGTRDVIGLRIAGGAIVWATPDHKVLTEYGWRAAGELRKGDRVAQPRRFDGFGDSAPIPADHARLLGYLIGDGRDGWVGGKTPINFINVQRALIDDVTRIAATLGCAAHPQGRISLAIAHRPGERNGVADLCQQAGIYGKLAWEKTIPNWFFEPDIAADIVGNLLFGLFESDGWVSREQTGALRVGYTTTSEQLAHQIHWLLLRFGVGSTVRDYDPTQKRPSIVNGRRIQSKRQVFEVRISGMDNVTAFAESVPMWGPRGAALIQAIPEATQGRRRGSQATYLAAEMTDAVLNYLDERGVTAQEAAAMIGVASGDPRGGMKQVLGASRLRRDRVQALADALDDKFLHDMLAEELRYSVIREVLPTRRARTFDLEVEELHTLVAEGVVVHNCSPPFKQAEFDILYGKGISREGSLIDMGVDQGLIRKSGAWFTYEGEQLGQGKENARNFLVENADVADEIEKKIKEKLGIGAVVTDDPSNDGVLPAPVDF
Mtb H37Rv: M. tuberculosis H37Rv growth inhibitors, H37Rv strain (AID 1626) | M. tuberculosis H37Rv growth inhibition; higher % means a stronger effect | one-dose inhibition, % at 10 µM; IC50 in µM for titrated hits | 220,000 tested, 0.95% active;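 active means confirmed in a dose series; inconclusive means inhibition above 80% but not taken into the dose series; inactive means below 80% or under 30% at every dose of the series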;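 further: bacteria incubated seven days before Alamar blue readout; 0% = bacteria only wells and 100% = bacteria with antibiotic wells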
YopH PTP inh: inhibitors of Yersinia enterocolitica YopH tyrosine phosphatase | fluorescence Ex485/Em525 | inhibition, %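 (about 10 µM by stock and volumes)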 | 140,000 tested, 0.16% active;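 active means inhibition of 50% or more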;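 further: controls were vehicle for no effect and minimum signal wells for full effect; inactives centre near -20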
Arbovirus anti: blocks arbovirus infection; arbovirus infection cell-based antiviral screen; inhibition, % at 10 µM; 200,000 tested, 0.37% active; AID 1251;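 active means inhibition from about 30%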;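 further: bluetongue infection of BSR cells; cell survival read as ATP light after 72 h; 0% = infected wells without compound and 100% = uninfected wells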
Mtb bLac sens: beta-lactam sensitization of Mtb H37Rv; AID 434955; M. tuberculosis H37Rv growth with meropenem, percent inhibition; hits of this screen are not shown here; inhibition, % at 25 µM; 330,000 tested, 0.27% active;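 active means about 74% or more and at least 40 points above the plate without the antibiotic, then above 30% in a dose series; inconclusive means first-round hits that could not be retested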;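 further: growth measured after seven days incubation then overnight dye step; 0% = bacteria only wells and 100% = bacteria with antibiotic; twin plates without the antibiotic show which effects depend on it; some results filed as inactive read as strong as hits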
Arbovirus anti repeat: second read-out of Arbovirus anti, no call of its own (marks repeat the call); inhibition, %; measured here: 10K subset replicate screen; many hits read low in the repeat;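 first of two repeat runs on a subset; 0% = infected and 100% = uninfected wells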
* hit, by the source's call; ? = inconclusive; · = not tested or not shown.

SMILES	RecA intein inh	Mtb H37Rv	YopH PTP inh	Arbovirus anti	Mtb bLac sens	others
O=C1C=C(NCc2ccc(Cl)cc2)CCC1	-3.4	4%	-8	5	3
Cc1cc(/C=N/O)c(C)n1-c1cccc(Cl)c1	-2.2	4%	·	-3	-5
O=C(Cc1cccs1)Nc1nnc(-c2ccccc2)s1	·	-4%	·	9	-2
CCOC(=O)c1c(C)c(C(=O)N2CCN(C(=O)c3ccco3)CC2)c(C)n1C	-2.6	-2%	-43	7	-7
CC(CCc1ccccc1)NC(=O)COC(=O)c1cccs1 (stereo unspecified)	2.4	74%	·	2	-1
CSc1ncccc1C(=O)NCC1CCCCC1	-3.7	5%	·	11	9
CCOc1ccc(CCNc2cc(C)nc3ncnn23)cc1OCC	1.6	·	-22	2	0	Arbovirus anti repeat=0
CCCSc1nnc(Cc2cc(=O)[nH]c(=O)[nH]2)n1-c1cc(C)ccc1C	3.9	-11%	-45	-1	-1
CCOC(=O)c1c(NC(=O)COC(=O)CCOc2ccccc2C)sc(C(=O)NC)c1C	0.6	·	·	·	0
Fc1ccc(CN2CCCCCCC2)cc1	-0.4	-4%	3	2	-2
COc1cc(OC)cc(C(=O)Nc2ccc(N(C)C)c3ccccc23)c1	2.1	·	·	·	8
Cc1cccc2cc(C(c3nnnn3CC3CCCO3)N3CCOCC3)c(=O)[nH]c12 (stereo unspecified)	-0.4	-2%	1	5	-9
Oc1oc(-c2ccco2)nc1C=Nc1cccc(Cl)c1	15	1%	-34	3	94
S=C(NCCc1ccccn1)Nc1ccccc1	18	-1%	·	8	0
COc1ccccc1-n1cnc2cc(NS(=O)(=O)c3ccccc3)ccc21	9.2	1%	-26	-20	11
CC(=O)c1ccc(N2CCN(S(=O)(=O)c3ccc4c(c3)CC(C)N4C(C)=O)CC2)cc1 (stereo unspecified)	-1.4	·	·	·	2
C=CCn1c2[n+](c3ccccc3c1=O)CCCCC2	2.3	-3%	·	7	-7
CCOC(=O)CSc1nncc2ccc(OC)c(OC)c12	0.3	-14%	5	9	-4
Cc1sc(NC(=S)NC(=O)c2ccccc2)c(C#N)c1C	-1.2	-10%	10	·	?
CN(c1ccc(Cl)cc1)S(=O)(=O)c1nnc(NC(=O)c2ccco2)s1	-0.3	·	·	·	6
CCCCOC(=O)Nc1nccs1	0.2	-3%	-14	1	-1
Cc1ccc(C)c(S(=O)(=O)NCc2ccc(C(=O)N3CCCCCC3)cc2)c1	-0.2	11%	-3	-11	6
O=C1c2ccccc2C2=Nc3ccccc3SC(c3ccccc3F)C12 (stereo unspecified)	27	-7%	-6	-20	-8
O=c1[nH]c(=S)[nH]c(O)c1N=Nc1ccc(S(=O)(=O)N2CCOCC2)cc1	-2.6	-6%	·	·	-5
CCCCn1c(SCC(=O)N2CCC(C)CC2)nc2cc(S(N)(=O)=O)ccc21	-1.0	7%	-43	2	11
Cc1cc(C)nc(-n2nc(C)c(Br)c2Nc2ccc(Br)cc2)n1	-1.8	-1%	-7	7	-4
CCOC(=O)Cc1c(C)nc2c(C#N)c[nH]n2c1=O	-0.8	1%	-49	14	8
Cn1cc(Br)c(-c2cccc(NC(=O)CCCC(=O)O)c2)n1	-0.4	-2%	·	·	5
Cc1ccc(O)c(CNn2cnnc2)c1	4.4	-11%	2	5	4
O=C1CCCc2c1cc(-c1ccccc1)n2-c1ccc(O)cc1	-2.0	-2%	-21	2	2
COc1cc(/C=C2\CCC(C3CCCC3)C2=O)cc(OC)c1OC (stereo unspecified)	2.2	·	·	·	-3
Nc1cc(=O)[nH]c(=O)n1-c1ccc(Cl)cc1	-7.3	6%	·	·	-15
CCCSc1nnc(-c2cnn(-c3ccccc3)c2-n2cccc2)n1C	8.8	-8%	6	-3	-4
NS(=O)(=O)c1ccc(N2N=C(c3ccccc3)CC2c2cccc(F)c2)cc1 (stereo unspecified)	-13	2%	-31	-43	-1
O=C(COC(=O)/C=C/c1ccc(S(=O)(=O)N2CCc3ccccc32)cc1)NC1CCS(=O)(=O)C1 (stereo unspecified)	3.8	-3%	·	2	-6
NC(=O)c1cc(NC(=O)CCc2nc3ccccc3s2)cc(C(N)=O)c1	-3.8	·	·	·	-1
COc1cc(C2SCC(=O)N2c2nnc(C34CC5CC(CC(C5)C3)C4)s2)cc(OC)c1OC (stereo unspecified)	-0.2	-6%	-26	-3	17
Fc1ccc(/C=N/Nc2nc(-c3cccnc3)nc3ccccc23)cc1	-11	6%	·	·	4
O=C(Cc1cccc2ccccc12)NCCC1=CCCCC1	7.4	12%	-26	9	3
O=C1/C(=C\c2ccc(C(F)(F)F)cc2)CSc2sccc21	2.6	4%	·	·	0

At a glance, 4 of the compounds above.
SMILES	RecA intein inh	Mtb H37Rv	YopH PTP inh	Arbovirus anti	Mtb bLac sens	others
COc1cc(C2SCC(=O)N2c2nnc(C34CC5CC(CC(C5)C3)C4)s2)cc(OC)c1OC (stereo unspecified)	-0.2	-6%	-26	-3	17
Fc1ccc(/C=N/Nc2nc(-c3cccnc3)nc3ccccc23)cc1	-11	6%	·	·	4
O=C(Cc1cccc2ccccc12)NCCC1=CCCCC1	7.4	12%	-26	9	3
O=C1/C(=C\c2ccc(C(F)(F)F)cc2)CSc2sccc21	2.6	4%	·	·	0

Other results.
SMILES	RecA intein inh	Mtb H37Rv	YopH PTP inh	Arbovirus anti	Mtb bLac sens	others
Cc1ccc(S(=O)(=O)N2CCC(NC(=O)c3cccc(C)c3)CC2)cc1	-0.2	-9%	·	-1	-6
O=C(N/N=C/c1ccc(Cl)cc1Cl)C1CCN(c2ncc(C(F)(F)F)cc2Cl)CC1	·	-9%	-35	-9	·
COc1ccc(CCNCC(O)Cn2c3ccccc3c3ccccc32)cc1OC (stereo unspecified)	-1.9	11µM*	·	-23	86
Cc1ccc(-c2nc(CS(=O)(=O)CC(=O)NCCCN(Cc3ccccc3)C(C)C)c(C)o2)cc1	0.5	·	·	·	5
COc1ccc(Nc2cccccc2=O)cc1	2.7	1%	-3	3	-8
CCC/C=N/NC(=O)c1ccccc1O	-5.4	-6%	·	2	16
O=c1cc(CN2CCN(C/C=C/c3ccccc3)CC2)c2cc(O)ccc2o1	·	4%	6	2	81
CCOC(=O)CSc1nc2ccccc2c(=O)n1CCCCCC(=O)NCc1ccco1	1.5	-1%	-38	-5	10
CN1CCN(/N=C/c2cccc(Cl)c2Cl)CC1	0.5	-15%	-25	-3	5
CCc1cc(=O)oc2cc(OCC=C(C)C)ccc12	1.5	11%	-7	-21	-2
O=C(O)CC1S/C(=N\N=C2\C(=O)Nc3ccccc32)N(c2ccc(O)cc2)C1=O (stereo unspecified)	-1.4	·	·	·	-1
Cc1ccccc1C(=O)N1CCc2cc(-c3csc(NC(=O)CN4CCCC4)n3)ccc21	7.9	·	·	·	5
COc1ccc(Nc2ccc(N3C(=O)CCCC3=O)cc2[N+](=O)[O-])c(OC)c1	5.2	-1%	-3	-14	1
Nc1cc(Nc2ccccc2)c2nonc2c1[N+](=O)[O-]	-1.8	·	·	·	9
O=C(Nc1ccc(Oc2cccc3ccccc23)cc1)c1ccco1	25	12%	-14	-36	0
O=C(NCC1CCCN1S(=O)(=O)c1cccs1)C(=O)Nc1cccc(F)c1 (stereo unspecified)	0.5	·	·	·	-6
CCn1nccc1C(=O)Nc1nccs1	·	-3%	-47	-1	-4
COC(=O)c1c(N2C(=O)[C@H]3[C@@H](C2=O)[C@]2(C(=O)Nc4c(C)cc(C)cc42)N2CCC[C@@H]32)sc(C)c1C	13	1%	·	9	5
Cc1nn(C)cc1NC(=O)Cn1nc(C(F)(F)F)cc1C1CC1	1.7	-1%	-34	2	-3
O=C(Nc1cccc(F)c1)c1ccc(-c2ccccc2Cl)o1	5.3	-13%	6	-15	76
CC(=O)N(C1=NCCCS1)c1ccc(Cl)cc1	·	-9%	·	7	9
Cn1ncc(N2CCN(C(=O)c3ccc(Cl)cc3)CC2)c(Cl)c1=O	-0.8	-8%	·	-5	0
C=CCOCC(O)Cn1c(N2CCCC2)nc2c1c(=O)[nH]c(=O)n2C (stereo unspecified)	-3.8	·	·	·	-4
O=C(Nc1cc(Cl)ccc1Cl)c1cc(-c2ccco2)on1	3.2	·	·	·	2
Cc1cccc(NC(=S)NCc2ccc(F)cc2)c1C	-1.1	·	·	·	6
Cc1cc(NC(=O)CSc2cn(CC(=O)N(C(C)C)C(C)C)c3ccccc23)no1	0.9	·	·	·	2
COc1ccc(NC(=O)c2cc3c(=O)n4ccccc4nc3n2C)cc1OC	-5.5	-3%	·	4	-9
COc1ccc(Cn2c(SCC(=O)NCc3ccco3)nc3ccsc3c2=O)cc1	-0.2	-8%	6	-11	-2
COC(=O)c1ccc(Cn2nc(C)c(Cl)c2C)o1	2.5	-5%	-52	7	-7
Cc1cccc(NC(=O)CCC(=O)OCC(=O)c2ccc(Oc3ccc([N+](=O)[O-])cc3)cc2)c1	5.4	-1%	-31	-2	5
Cc1c(N=Cc2c(O)n(Cc3ccco3)c(=O)[nH]c2=O)c(=O)n(-c2ccccc2)n1C	-4.3	1%	-37	5	-16
N=C1C(c2nc(-c3ccc(F)cc3)cs2)=C(O)CN1Cc1ccc(Cl)cc1	4.6	-4%	3	-12	5
CC1C/C(=C/c2ccncc2)C(=O)/C(=C/c2ccncc2)C1 (stereo unspecified)	7.4	?	·	-28	100
CCSc1nnc(NC(=O)NC(C)(C(F)(F)F)C(F)(F)F)s1	-1.8	0%	-29	8	-2
CSc1cccc(NC(=O)CN(C)S(=O)(=O)c2ccc(F)cc2)c1	-0.6	4%	-16	8	-3
Cc1ccnc(SCCn2c(N3CCC(C)CC3)nc3c2c(=O)[nH]c(=O)n3C)n1	·	2%	-40	5	·	Arbovirus anti repeat=2
COc1cc(NC(=O)CN2C(=O)NC(C)(c3ccccc3)C2=O)c(C)cc1[N+](=O)[O-] (stereo unspecified)	-1.7	4%	-30	4	2
O=C(CCN1C(=O)C2CC=CCC2C1=O)NC1CCCCC1 (stereo unspecified)	-2.2	·	·	·	1
CCOC(=O)COc1nc2ccc(Br)cc2c(-c2ccccc2)c1C(C)=O	5.9	·	·	·	-4
CNC(=S)Nc1cc(S(=O)(=O)Nc2cc(Cl)ccc2Cl)ccc1N1CCCC1	-2.0	·	·	·	3
CCOc1ccc(CCNC(=O)C2(c3ccccc3)CC2)cc1OCC	2.7	·	·	·	1
CC(CN1CCCC(C(N)=O)C1)c1ccccc1 (stereo unspecified)	-0.6	-3%	5	4	-7
COc1ccccc1NS(=O)(=O)c1cc(NC(=O)c2sccc2C)ccc1N1CCCC1	3.2	3%	·	-2	-2
COc1cc(C(c2c(O)c3ccccc3oc2=O)c2c(C)n(C)n(-c3ccccc3)c2=O)ccc1O (stereo unspecified)	-3.9	-8%	-23	6	-4
COc1ccc(CN2CCN(C(=O)c3cccs3)CC2)cc1Br	0.7	2%	-22	-1	-7	Arbovirus anti repeat=-2
COc1ccc(CCNC(=O)CN(C)S(=O)(=O)c2ccc3nc(C)sc3c2)cc1OC	-1.0	·	·	·	1
O=C(O)c1cccc(CSc2nnc(Cc3ccccc3)o2)c1	-6.5	3%	-45	16	-6
O=C(N/N=C/c1ccccc1)c1[nH]c2ccc(Br)cc2c1-c1ccccc1	9.1	36%	-22	-10	-1
c1ccc(/N=C2\N=C(Nc3ccccn3)c3ccccc32)nc1	0.1	·	·	·	100
COc1cc(S(=O)(=O)NCc2ccncc2)ccc1Br	0.3	·	·	·	-5
Later entries.
SMILES	RecA intein inh	Mtb H37Rv	YopH PTP inh	Arbovirus anti	Mtb bLac sens	others
COc1ccc(CCNC(=O)CCC(=O)N2CC(C)Oc3ccc(Cl)cc32)cc1OC (stereo unspecified)	0.2	·	·	·	-3
C=C(C)CSc1nc2ccccc2[nH]1	-0.7	-9%	-36	5	-7
COc1ccc(NC(=O)c2cn(-c3ccccc3)nc2-c2cc3ccccc3o2)cc1	-1.2	0%	-20	-6	-10
CCCCNc1c(-c2ccc(OC)c(Sc3ccc(OC)cc3)c2)nc2ccccn12	1.6	·	·	·	69
CCCn1ncc(CN2CCN(Cc3ccc(C)o3)C(CCO)C2)c1C (stereo unspecified)	-1.2	-8%	·	·	2
CS(=O)(=O)N(Cc1ccccc1)c1ccc(C(=O)Nc2ccccc2Sc2ccccc2)cc1	-0.8	·	-16	9	3
CC(=O)C1(O)C(C)CC2C3CCC4CC(O)CCC4(C)C3=CCC21C (stereo unspecified)	·	-6%	-39	3	0	Arbovirus anti repeat=-1
Cc1cccc(N2CCN(c3ccc(NC(=O)/C=C(/C(=O)O)c4ccccc4)cc3)CC2)c1	2.2	-2%	6	-5	70
Cc1ccc(NS(=O)(=O)c2cc(C(=O)O)ccc2Cl)cc1	1.3	11%	-28	17	2	Arbovirus anti repeat=-1
O=C(Nc1cccc(F)c1)/C(=C\c1ccco1)NC(=O)c1ccco1	1.4	·	·	·	0
Cc1c(C(=O)NC(C)C)sc2ncn(CC(=O)N3CCC(C)CC3)c(=O)c12	0.0	4%	-7	2	-3

Some of the compounds tested. The share of hits here may be higher or lower than overall.
